# Compound activity from PubChem.
# hNpr1 antagonist = Natriuretic polypeptide receptor (hNpr1) antagonism - Primary qHTS. HEK293 hNpr1 GloSensor cGMP, ANP-stimulated luminescence. 76,000 compounds, 1.6% hits. AID 1347048, 2019. Atrial natriuretic peptide receptor 1 (Homo sapiens), P16066. Potency, µM (doses to about 46.3 µM), inactives show at the top dose activity change, negative = inhibition, actives largely listed as inhibitors; active = well fitted inhibition curve with a large enough effect; inconclusive = small, poorly fitted or top-dose-only effect; inactive = no such curve, though single readings can be large or run the other way;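 note: nearly all actives have a fitted effect of over 60% in size; nearly all hits also lower the signal before the agonist is added; a reference antagonist and vehicle were the controls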
# Target sequence (P16066 whole entry, looked up): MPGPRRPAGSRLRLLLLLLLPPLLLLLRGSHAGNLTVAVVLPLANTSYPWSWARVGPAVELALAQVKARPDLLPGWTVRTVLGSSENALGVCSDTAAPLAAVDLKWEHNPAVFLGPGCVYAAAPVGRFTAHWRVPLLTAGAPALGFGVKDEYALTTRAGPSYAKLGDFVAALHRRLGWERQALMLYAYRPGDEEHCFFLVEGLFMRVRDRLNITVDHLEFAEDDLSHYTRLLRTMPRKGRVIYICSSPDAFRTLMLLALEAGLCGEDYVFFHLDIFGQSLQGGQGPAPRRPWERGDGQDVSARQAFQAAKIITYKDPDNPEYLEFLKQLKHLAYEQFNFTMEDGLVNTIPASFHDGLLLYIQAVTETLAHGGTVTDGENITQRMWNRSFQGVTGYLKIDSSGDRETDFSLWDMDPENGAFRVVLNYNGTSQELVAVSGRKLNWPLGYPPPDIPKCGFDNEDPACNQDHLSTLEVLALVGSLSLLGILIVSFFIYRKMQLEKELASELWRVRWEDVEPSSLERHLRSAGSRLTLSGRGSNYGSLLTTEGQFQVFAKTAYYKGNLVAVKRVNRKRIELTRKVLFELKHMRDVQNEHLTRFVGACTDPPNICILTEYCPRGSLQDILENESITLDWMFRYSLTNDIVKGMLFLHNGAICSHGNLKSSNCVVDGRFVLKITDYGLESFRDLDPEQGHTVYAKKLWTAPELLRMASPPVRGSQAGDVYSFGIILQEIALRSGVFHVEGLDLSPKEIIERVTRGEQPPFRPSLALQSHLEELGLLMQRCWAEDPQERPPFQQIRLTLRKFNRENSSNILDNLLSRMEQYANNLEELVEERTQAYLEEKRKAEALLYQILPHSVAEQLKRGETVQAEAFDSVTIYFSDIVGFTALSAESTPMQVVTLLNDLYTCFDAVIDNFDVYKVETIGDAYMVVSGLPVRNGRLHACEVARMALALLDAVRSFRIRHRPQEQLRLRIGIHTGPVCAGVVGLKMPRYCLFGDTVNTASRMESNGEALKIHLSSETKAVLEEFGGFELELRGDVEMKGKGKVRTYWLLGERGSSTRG
#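 HEK293 cells stably expressing human Npr1 and cGMP GloSensor pGS-40F, loaded 2 h with 2% GloSensor reagent, given compound 30 min at room temperature. Luminescence read before and 20 min after 0.1 nM hNppA.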
# Active calls of the source: *; u = inconclusive; [ ] = remark or other dose. % is set by controls: 0 for no effect and ±100 for the full control effect; potency is the fitted concentration of half-maximal effect. An excerpt. The share of hits here may be higher or lower than overall.
hNpr1 antagonist,SMILES
3.1%,CCn1ccnc1CN(C)C(=O)c1cc(COc2ccccc2F)[nH]n1
3.5%,O=C(Cc1ccsc1)N1CCC2(CC1)N=C(c1ccccc1)NO2
-1.5%[70.6 µM],CNC(=O)[C@@H](c1ccc(Cl)cc1)N1CCC[C@H]1C(=O)NC(C)C
-10.2%,Cc1cccc(-c2noc(CCCC(=O)N3CCC4(CC(=O)NC4=O)C3)n2)c1 (configuration not stated)
-4.4%,CN(C)C(=O)C1CN(C(=O)c2cccc(Br)c2)CC12CCOCC2 (configuration not stated)
-11.7%,O=C(Cn1ccn2nc(-c3ccccc3)c(CO)c2c1=O)Nc1ccc(F)cc1F
0.6%,Cn1c(CN2CCOCC2)nnc1C1CCCN(S(=O)(=O)C2CC2)C1 (configuration not stated)
-2.1%,CCOc1ccc(-c2nc(C3CC(=O)N(c4ccc(Cl)cc4)C3)no2)cc1OCC (configuration not stated)
3.6%[70.6 µM],OC1CCC(NCc2ccc(-c3cnc4c(OCc5ccccc5)nccn34)cc2)CC1 (configuration not stated)
0.6%,Cc1nc(NCc2csc(-c3cnccn3)n2)cc(C2CC(O)C2)n1 (configuration not stated)
-10.3%,Cn1cccc1C(=O)NC1CCN(c2cc(-c3ccccc3)[nH]n2)CC1
0.0%,O=C1N(C2CCOCC2)CCCC12CCN(c1ccc(Cl)cn1)C2 (configuration not stated)
0.1%,CCC(=O)N1CCc2c(C(=O)Nc3ccc(C)cc3)cccc21
-1.8%[70.6 µM],Cc1cccc(CN2CC[C@@H]3OCC(=O)N(Cc4ccccc4)[C@H]3CC2)c1
-0.1%,O=C(CC1CCOC2(CCN(Cc3cccc(F)c3)CC2)C1)NC1CC1 (configuration not stated)
-0.5%,O=C(CCc1ccccc1)N1CC2CC(C1)[C@H]1CCCC(=O)N1C2 (some centres not stated)
-2.6%[70.6 µM],CC(=O)N1CCc2nc(C)nc(-c3ccc(Cl)cc3)c2CC1
7.1%,C[S+](=O)([O-])N1CCCC(c2nn(-c3ccc(F)cc3)c(=O)[nH]2)C1 (configuration not stated)
u,O=C(NCC1CCCO1)c1csc(N2CCN(c3ccc(Cl)cc3)CC2)n1 (configuration not stated)
-3.1%,Cc1cnc(C(=O)N2CCCC(c3nnc(Cn4cccn4)n3C)C2)cn1 (configuration not stated)
1.2%[70.6 µM],CNC(=O)C1(N2CCC[C@H]2C(=O)N(C)CCN(C)C)CCC1
3.6%[70.6 µM],CCN(CC)[C@H]1[C@@H]2OC[C@@H](O2)[C@@H](NC(=O)Nc2ccc(OC)cc2)[C@@H]1O
-14.0%,CCC1(C(=O)NCCN2CCOCC2)CCCCC(=O)N1 (configuration not stated)
-28.8%,CCCC1C=CCN1C(=O)c1cc(-c2ccncc2)nc2ccccc12 (configuration not stated)
0.0%[70.6 µM],O=C1NCCN1C1CCN(Cc2ccccc2)CC1
4.3%,Cc1ccc(CC(=O)NCCc2noc(C3CC3)n2)cc1
-7.8%[70.6 µM],COc1ncccc1-c1cn(C)c(=O)n2cc(CNc3ccccc3)nc12
8.1%,COCC(=O)N1CCCC(c2noc(COc3ccccc3)n2)C1 (configuration not stated)
-0.8%,CN1CCCCCC(O)c2cc(C(=O)NC3CCCCC3)ccc21 (configuration not stated)
-29.8%,O=C(c1ccccc1)N1CCN(Cc2ccc(=O)n(CC3CC3)c2)CC1
2.9%,O=C(c1cnc(Cc2c(Cl)cccc2Cl)[nH]c1=O)N1CCCCC1
-13.3%,O=C1N(Cc2ccc(F)c(F)c2)CCCC12CCN(c1nc3ccccc3o1)C2 (configuration not stated)
3.6%,C[C@@H]1CN(CC(=O)NCCc2ccc(F)cc2)CC[C@@]1(O)C1CC1
0.7%,Cc1ccsc1C(=O)N1C[C@@H](Oc2cccnc2)C[C@@H]1C(=O)N1CCOCC1
18.5%[70.6 µM],O=C(c1cccnc1)N1CCC2(CC1)C(=O)NN=C2c1ccccn1
-27.9%,O=C1c2c(nc(COc3ccc4c(c3)OCO4)n2Cc2ccccc2)NCCN1CCOc1ccccc1
0.2%,CCC(C)NC(=O)C1COC2(CCN(C(=O)c3cccc(C)c3)CC2)N1C(=O)c1ccc(OC)cc1 (configuration not stated)
24.4%,CN1CC[C@H]2CN(C(=O)c3scc4c3OCCO4)C[C@@]2(C(=O)O)C1
-0.1%,CCN(CCCNC(=O)C1CCN(c2cn[nH]c(=O)c2)C1)c1ccccc1 (configuration not stated)
4.1%,O=C1CCN(C(=O)CN2CCCCCC2)CCCC(c2nc(-c3cccnc3)no2)CCN1 (configuration not stated)
-4.6%,CN1CCN(c2ccc3nnc(-c4cc(C(=O)Nc5cccc(Cl)c5)ccn4)n3n2)CC1
-3.2%[70.6 µM],CC(C)NC(=O)Nc1ccc([C@H]2OCC(=O)N(Cc3cccnc3)[C@@H]2CO)cc1
-0.9%,Cc1cc(F)ccc1OCC(=O)c1ccc2c(c1)N(CC(=O)NC1CCCCC1)C(=O)CO2
2.0%[70.6 µM],CS(=O)(=O)Nc1cc(-c2noc([C@@H]3CCCN3C3CCOCC3)n2)ccn1
-0.9%,COC[C@@H]1CN(Cc2c(F)cccc2Cl)C[C@H]1C(=O)NC1CC1
7.8%,CCOc1ccc(-c2cc3c(=O)n(CCNC(=O)c4ccc(C)c(C)c4)ccn3n2)cc1
3.6%[70.6 µM],CC(C)(C)C(=O)N1CC[C@@H](CC(=O)O)[C@@H](CC2=NCCc3cc(F)ccc32)C1
1.3%,O=C(CN1CC2CC(C1)[C@H]1CCCC(=O)N1C2)N1CCSCC1 (some centres not stated)
-0.8%[70.6 µM],O[C@H]1[C@H](NCc2ccncc2)[C@H]2CO[C@H](O2)[C@@H]1N1CCN(c2ccccc2)CC1
2.9%,CC1(C(=O)NCc2cccs2)CCCCC(=O)N1 (configuration not stated)

# Carrying on:
hNpr1 antagonist,SMILES
-2.4%,COCCNC(=O)[C@@H]1C[C@@H](O)CN1C1CCN(C(=O)c2ccccc2)CC1
-8.6%[70.6 µM],CN(C(=O)c1ccc2c(c1)NC(C)(CNCc1ccccc1)CO2)c1ccccc1 (configuration not stated)
-13.0%,CC1Oc2ccc(NC(=O)c3ccc([N+](=O)[O-])cc3)cc2CN(Cc2ccccc2F)C1=O (configuration not stated)
-17.5%,CC1(c2ccccc2)N(Cc2ccc(O)cc2)C(=O)OC12CCN(Cc1ccc(C#N)cc1)CC2 (configuration not stated)
2.3%,O=C(NCCCc1ccccc1)c1n[nH]c2c1CN(C(=O)c1ccc(F)cc1F)CC2
0.8%[70.6 µM],O=C([C@H]1O[C@H](CCN2CCC(CO)CC2)CC[C@@H]1O)N1CCN(c2ccccc2)CC1
-25.0%,Cc1ccc(NC(=O)c2cc3n(n2)CC(c2ccc(Cl)cc2)OC3)c(Cl)c1 (configuration not stated)
4.1%,COCc1noc(CCNC(=O)C2CC3(CCNCC3)CN2)n1 (configuration not stated)
-15.1%,CCn1cc(S(=O)(=O)N2CCC3(CC2)CN(C2CCC2)CC3COC)cn1 (configuration not stated)
-10.9%[70.6 µM],CC[C@H]1CN(C(=O)Nc2ccccc2)CC[C@H]1CC(=O)NCc1ccc(F)cc1
-22.0%[70.6 µM],O=C(NCCOc1ccccc1)c1ccc2c(c1)OCCN(c1ccccc1)C2
-0.4%,COC(=O)CN1CCOC(c2ccc3cc(OC)ccc3c2)C1 (configuration not stated)
0.3%,CSCC(=O)N1C[C@@H](C(=O)O)[C@H](c2ccc3c(c2)OCO3)C1
2.6%[70.6 µM],COc1ccc(-c2cn3c(n2)CO[C@@H](CNCc2ccccc2OC)C3)cc1
u,O=c1[nH]c(C2CCCN(Cc3cccc(-c4cccs4)c3)C2)nc2ccc(F)cc12 (configuration not stated)
1.3%,Cc1cc(S(=O)(=O)N[C@@H]2CN(C)C[C@H]2CN(C)C)ccc1F
-12.9%,CC1=NS(=O)(=O)N(Cc2ccccc2)C=C1C(=O)OCc1c(C)noc1C
-0.4%,COc1cc(Cl)ccc1C(=O)N1C[C@@H](CO)[C@H](c2nc(C)no2)C1
-19.2%,COc1ccc(NC(=O)C2CCN(c3cc(C(F)(F)F)ncn3)CC2)cc1OC
-13.3%[70.6 µM],Cn1nccc1-c1cccc(CCOc2cnc3c(ccn3CC(=O)O)c2)c1
-0.8%[70.6 µM],CC[C@H]1CN(C(=O)c2ccc(F)cc2)CC[C@H]1CC(=O)NC1CCCC1
-15.0%,Cn1nccc1C(=O)N1CCC(c2cc(-c3ccc(F)cc3)n[nH]2)CC1
5.2%,c1cn(-c2ccc(Oc3nn[nH]n3)cc2)c(-c2cc3n(n2)CCNC3)n1
8.9%,COc1ccccc1CNC(=O)c1ccc(CN2C(=O)NC3(CCOCC3)C2=O)cc1
4.0%,O=C(NCc1nnc2ccc(-c3ccccc3)nn12)c1ccccc1F
5.5%,CN1CCN(c2nc3c(c(=O)[nH]2)CCN(Cc2cccc4[nH]ccc24)CC3)CC1
5.1%,COc1cc2c(cc1OC)C(C[C@H]1CN(C(=O)Cc3cccs3)CC[C@H]1CC(=O)O)=NCC2
u,O=C(C1CCOCC1)N1CCC(c2noc(COc3ccc(F)cc3)n2)C1 (configuration not stated)
-2.0%[70.6 µM],Cn1cc(CN2C[C@@H](F)[C@@H](OCc3nc4ccc(C(F)(F)F)cc4[nH]3)C2)cn1
-26.8%,CCCOC1CCCN(C(=O)c2cc(Cl)ccc2OC2CCN(C(C)=O)CC2)C1 (configuration not stated)
u,Cc1ccc(C2Cn3nnc(-c4nc(C5CCCCC5)no4)c3CO2)c(C)c1 (configuration not stated)
0.4%,COc1ccc(C(=O)N2CCCC(C(=O)NCc3ccccc3)CCNC(=O)CC2)cc1F (configuration not stated)
-2.0%,Cn1cc([C@@H](NC(=O)c2cccc3c2NCCC3)C2CC(O)C2)cn1 (some centres not stated)
2.5%[70.6 µM],CCNC(=O)NC[C@H]1O[C@H](Cc2cc(COC)on2)CC[C@@H]1O
0.0%,CCc1c(C(=O)N2CC[C@@H]3[C@@H](CCC(=O)N3CCN)C2)csc1C
2.1%[70.6 µM],CCc1nc2c(c(-c3ccc(Cl)cc3)n1)CN(C(=O)C1CC1)CC2
-2.0%,CCCc1ccc(S(=O)(=O)N2CCC(c3c[nH]c4c(C)cccc34)CC2)cc1
6.6%,COC1CCC12CCN(Cc1ccc(F)c(F)c1)CC2 (configuration not stated)
4.3%,O=C1CCC2(CNC(=O)c3cccnc3)CCCC=C2N1 (configuration not stated)
0.8%,COc1ccccc1OC1(C(=O)O)CCN(C(=O)CC2CC2)CC1
1.8%,CC(C)CN1CCc2[nH]cnc2C12CCN(C(=O)CN1CCOC1=O)CC2
-0.6%,CS(=O)(=O)Nc1ccc(C2(C(=O)O)CCCCC2)cc1
3.2%,O=C(NCc1ccc2c(c1)OCO2)c1nc(-c2cccnc2)c2cnccn12
-13.3%,Cc1ccc(Cl)cc1-n1nc(-c2c(C)nc3scc(CC(=O)NCCC(C)C)n3c2=O)cc1C
-8.0%,Cc1cccc(C(=O)N2C(C(=O)NC3CC3)COC23CCN(C(=O)Cc2ccccc2)CC3)c1 (configuration not stated)
0.0%[70.6 µM],O=C(Nc1cccc(C(F)(F)F)c1)c1nc2c(o1)CCN(Cc1ccccc1)CC2
1.1%,COc1cccc(N2CCN(C(=O)c3ccc4c(c3)N(C)C3CCCCCN3C4=O)CC2)c1 (configuration not stated)
8.5%,NC(=O)[C@H](CC1CCCCC1)NC(=O)[C@H]1CN(C(=O)C2CCNCC2)CCN1C(=O)C1CCNCC1
u,O=C(c1ccsc1)N1CCC2(CC1)NC(=O)N(Cc1cccc(Cl)c1)C2=O
3.4%[70.6 µM],CNC(=O)c1ccc2c(c1)C1(CCN(CC3CC3)C1)CN2Cc1ccccc1 (configuration not stated)

# The list goes on:
hNpr1 antagonist,SMILES
8.5%,CC(C)N1C[C@H](O)C[C@H]1c1nnc2n1CCN(C(=O)c1cccs1)C2
-19.3%[70.6 µM],CC1(CNCc2ccccc2)COc2ccc(C(=O)Nc3cccnc3)cc2N1 (configuration not stated)
4.6%[70.6 µM],CC1=C[C@@H](CNC(=O)c2ccncc2)[C@H](C(C)C)C[C@H]1CC(=O)N1CCCC1
7.9%[70.6 µM],COc1ccccc1-c1ccc2ncn(-c3ccc(F)cc3F)c(=O)c2n1
-28.0%[70.6 µM],C[S+](=O)([O-])Nc1cccc(Nc2ncc(-c3cccc(F)c3)c3c2OCC3)c1
-21.8%,COC(=O)C1=C(C)N=C2SC=C(CC(=O)NCc3ccccc3F)N2C1c1cccc(OC)c1 (configuration not stated)
u,COc1ccccc1CC(=O)N1CCCc2ncc(C(=O)Nc3ccccc3)cc21
0.7%,Cc1nc2ccc(C(=O)N3CCC(OCc4cccnc4)CC3)cc2nc1C
